# Rce1 inhib: blocks yeast Ras-converting enzyme; hit rate 0.27% among 290,000; Q03530; calls only; yeast membranes, quenched prenylated peptide cleavage fluorescence; AID 2563;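 active = fall in fluorescence gain of 50% or more versus controls, with final raw signal at or below 3038400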;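 also: plate controls were neutral control wells for no effect and wells lacking membranes for full effect; tested at 10 µM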
# Target sequence (Q03530 whole entry, looked up): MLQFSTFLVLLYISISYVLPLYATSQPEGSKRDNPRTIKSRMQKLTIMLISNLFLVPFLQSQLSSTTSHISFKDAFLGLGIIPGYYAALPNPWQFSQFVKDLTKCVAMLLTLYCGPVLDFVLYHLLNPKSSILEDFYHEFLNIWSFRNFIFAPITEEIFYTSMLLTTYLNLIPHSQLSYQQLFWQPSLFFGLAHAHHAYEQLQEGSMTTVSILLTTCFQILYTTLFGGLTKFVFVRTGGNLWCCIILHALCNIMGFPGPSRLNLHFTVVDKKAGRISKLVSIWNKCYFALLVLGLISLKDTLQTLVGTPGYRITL
# eIF4H inh: inhibitors of RNA binding by human eIF4H | eIF4H fluorescence polarization binding assay | inhibition, % at 35 µM | Q15056 | hit rate 0.94% among 290,000;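 active = 50% or more with normal probe brightness, or confirmed in later tests; about a fifth of its hits are not listed in these tables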;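 also: calls also rest on retests at 20 µM and on dose response follow-up; 0% = protein and probe with vehicle and 100% = probe without protein; strong numbers were not always called active; many hits fall short of the cut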
# PABP FP inh: blocks human PABP binding to poly(A) RNA | P11940 | fluorescence polarization | inhibition, % at 35 µM | hit rate 1% among 290,000 | AID 2014;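 active = 50% or more with normal probe brightness, or confirmed in later tests; about a fifth of its hits are not listed in these tables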;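 also: calls also rest on retests at 20 µM and on dose response follow-up; controls were probe without protein and protein plus probe with vehicle; some compounds called inactive have numbers as strong as hits; many hits fall short of the cut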
# UUG fidelity: yeast start codon fidelity modulation; hit rate 0.13% among 350,000; activity score, % at 18.7 µM; S. cerevisiae UUG-firefly luciferase reporter, luminescence/redox ratio; AID 602363;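 active = replicate mean at a twofold rise or more, about +100% in these data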;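 also: firefly luciferase made from a UUG start codon reports start codon fidelity; reporter light over untreated wells divided by growth signal over untreated wells; some hits fall short of that in this replicate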
# CSC inhib: blocks cancer stem cells. inhibition, % at 7.5 µM. cancer stem cell-like cells viability, luminescence. AID 2717. hit rate 1.1% among 300,000;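 active = mean at 75% or more and at least half the replicates too; tested in HMLE shEcad cells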;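 also: 0% = median of negative and 100% = median of positive control wells; the first replicate is given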
# MT1-MMP act inh: inhibitors of human MT1-MMP activation; P50281; HT1080 RFP-PRO-GFP cells, GFP/RFP ratio fluorescence, overnight; percent of plate control window, DMSO zero; GFP/RFP ratio change, % at 20 µM; hit rate 0.061% among 360,000; AID 651647;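 active = GFP/RFP ratio change of at least 30% with cell ATP level not reduced by more than half and red fluorescence within 50% of control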; also: strong numbers were not always called active
#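 Read-out: GFP/RFP fluorescence ratio; Test system: RFP-PRO-GFP reporter HT1080 cells; Compound dosing: single-point 20 µM compound, 1% DMSO; Times: overnight compound exposure at 37 °C.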
# HIV Env fusion: HIV envelope-mediated fusion inhibition; HeLa-JRFL Env/CEM21 cell fusion, luciferase; inhibition, % at 12.3 µM; hit rate 1.1% among 360,000;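 active = mean replicate inhibition score of at least 50 and every replicate individually at or above 50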;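 also: 0% = plate neutral controls and 100% = maraviroc near 300 nM; one replicate is shown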
# eIF4H inh retest: also measured in eIF4H inh; calls as there; inhibition, %; compound at 20 µM; confirmation average;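 mean of two retest wells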
# PABP FP inh retest: recorded beside PABP FP inh, whose call it bears; inhibition, %; compound at 20 µM; confirmation repeats;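 mean of two retest wells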
# MT1-MMP act inh RFP: further read-out of MT1-MMP act inh, marked with its call; RFP signal change, %; measured here: RFP expression control read;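 0 = vehicle wells; hits needed this value within 50% of zero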
# Numbers without * were called inactive; i = inactive; · = no result given. Some of the compounds tested; the hit share may differ from the screen's.
SMILES,Rce1 inhib,eIF4H inh,PABP FP inh,UUG fidelity,CSC inhib,MT1-MMP act inh,MT1-MMP act inh RFP,HIV Env fusion,others
CN(C)C(=O)COC(=O)c1cccnc1Nc1ccccc1F,i,-1,-2,·,0,1,1,9,
Cc1ccccc1-n1c(C)cc(/C=C2\NC(=O)NC2=O)c1C,i,6,-3,-22,-4,-4,3,-2,
Cc1cc(O)cc(O)c1C(=O)Cc1cnn(-c2ccccc2)c1,i,-7,3,-2,23,8,0,21,
Cc1occc1C(=O)Nc1c(F)c(F)c(F)c(F)c1F,i,3,4,-11,1,15,16,-44,
C=CCn1c(CCNC(=O)c2ccc(Cl)c(Cl)c2)nnc1SCCOc1ccc(OC)cc1,i,5,-10,5,3,9,-14,·,
CC(C)(C)NC(=O)C[C@H]1C[C@H](C(=O)N2CCCCC2)[C@@]2(C)c3[nH]c4ccc(Cl)cc4c3CCN2C1=O,·,·,·,-4,·,-6,-11,-71,
O=C(NCc1nnc(SCC(=O)N2CCCCC2)o1)c1c(F)cccc1Cl,i,4,-3,-6,1,1,1,-1,
CC(C(=O)N1CCCCCC1)c1ccc([N+](=O)[O-])cc1 (configuration not stated),·,-4,-2,·,1,0,2,2,
COc1ccc(C(=O)NC2CCN(C(=S)Nc3cccc(C)c3C)CC2)cc1,i,-6,-2,-9,-2,2,1,·,
O=C(Nc1nnc(/N=C/c2ccco2)s1)c1ccc(F)cc1,i,4,0,-3,15,-3,2,-49,
COc1ccc(Cl)cc1NC(=O)CSc1sc2c(O)cc(=O)[nH]c2c1C#N,·,29,22,-9,-7,-1,3,3,
Cn1nc(Cc2cccc3ccccc23)c(C#N)c1N,i,·,·,-5,-1,6,-1,-12,
Cc1ccccc1OCCn1cc(C=O)c2ccccc21,i,-6,-2,-9,20,3,-20,14,
COc1ccc(N2C(=O)CC2(C#N)c2ccc(OCc3ccccc3)cc2)cc1 (configuration not stated),i,3,2,·,15,3,6,5,
COc1ccc(-c2cc(CNC(=O)CN3CCN(C)CC3)on2)cc1,i,-12,2,-11,-8,-3,2,·,

# Arranged by length of the SMILES (falling): part of the list above.
SMILES,Rce1 inhib,eIF4H inh,PABP FP inh,UUG fidelity,CSC inhib,MT1-MMP act inh,MT1-MMP act inh RFP,HIV Env fusion,others
C=CCn1c(CCNC(=O)c2ccc(Cl)c(Cl)c2)nnc1SCCOc1ccc(OC)cc1,i,5,-10,5,3,9,-14,·,
CC(C(=O)N1CCCCCC1)c1ccc([N+](=O)[O-])cc1 (configuration not stated),·,-4,-2,·,1,0,2,2,
O=C(Nc1nnc(/N=C/c2ccco2)s1)c1ccc(F)cc1,i,4,0,-3,15,-3,2,-49,
Cc1occc1C(=O)Nc1c(F)c(F)c(F)c(F)c1F,i,3,4,-11,1,15,16,-44,

# Back to the main list with the 3 entries that preceded the break.
SMILES,Rce1 inhib,eIF4H inh,PABP FP inh,UUG fidelity,CSC inhib,MT1-MMP act inh,MT1-MMP act inh RFP,HIV Env fusion,others
Cc1ccccc1OCCn1cc(C=O)c2ccccc21,i,-6,-2,-9,20,3,-20,14,
COc1ccc(N2C(=O)CC2(C#N)c2ccc(OCc3ccccc3)cc2)cc1 (configuration not stated),i,3,2,·,15,3,6,5,
COc1ccc(-c2cc(CNC(=O)CN3CCN(C)CC3)on2)cc1,i,-12,2,-11,-8,-3,2,·,
Cc1ccc(S(=O)(=O)N2CCN(c3ccc(C(=O)N4CCOCC4)cc3[N+](=O)[O-])CC2)cc1,i,4,-3,-2,35,5,-10,36,
O=c1c2ccccc2c(C=NCc2ccccn2)c(O)n1-c1ccccc1,i,90*,3.8*,-23,-5,-6,5,-4,eIF4H inh retest=96*;PABP FP inh retest=50*
CCN(CC)S(=O)(=O)c1ccc(Cl)c(NC(=O)c2ccncc2)c1,i,-8,-3,·,-6,2,1,-4,
COc1ccc(-c2nc(=S)c3c([nH]2)Oc2ccc(C)cc2C3)cc1O,i,7,4,·,-9,-4,4,26,
COc1cc(OC)cc(N2C(=O)CC(N3CCC(C(=O)N4CCCCC4)CC3)C2=O)c1 (configuration not stated),i,66,34,-23,3,1,5,20,eIF4H inh retest=36;PABP FP inh retest=32
CN(C)c1ccc(/C=N/N=C/c2ccccc2O)cc1,i,-4,-9,·,1,2,4,·,
FC(F)(F)c1ccccc1Nc1nccs1,i,0,3,-15,-5,2,0,·,
CC1CCN(S(=O)(=O)c2ccc(NC(=O)CN3CCCC(C)C3)cc2)CC1 (configuration not stated),i,-4,3,-6,23,2,-2,34,
Cc1ccc(N2C(=O)c3ccccc3C2Nc2cccnc2)nc1 (configuration not stated),i,-12,-20,-5,-7,2,2,-8,
Cc1ccc(S(=O)(=O)NCCNc2ccc(Br)c(C)c2)cc1,·,·,·,-2,-6,0,1,12,
O=C(Cn1nnc(-c2ccc(F)cc2)n1)Nc1cccc(S(=O)(=O)N2CCCC2)c1,·,·,·,-10,2,-1,-15,11,
CC1(C)CC(=O)c2sc(NS(=O)(=O)c3ccc(F)cc3)nc2C1,i,2,4,·,-10,-1,2,-6,
O=C(CSc1nc(-c2ccccc2F)nc2nc[nH]c12)Nc1c(Cl)cc(Cl)cc1Cl,i,10,-4,·,-12,·,·,5,
CCCCC(=O)NNC(=S)NC(=O)C(c1ccccc1)c1ccccc1,i,3,-5,·,-14,-5,-7,26,
CCCCCCCCCn1cc(C(C)=O)c(=O)[nH]c1=O,i,-5,-6,-8,0,2,1,17,

# Brought forward from above: 6 entries; new compounds follow.
SMILES,Rce1 inhib,eIF4H inh,PABP FP inh,UUG fidelity,CSC inhib,MT1-MMP act inh,MT1-MMP act inh RFP,HIV Env fusion,others
Cc1ccc(S(=O)(=O)NCCNc2ccc(Br)c(C)c2)cc1,·,·,·,-2,-6,0,1,12,
O=C(Cn1nnc(-c2ccc(F)cc2)n1)Nc1cccc(S(=O)(=O)N2CCCC2)c1,·,·,·,-10,2,-1,-15,11,
CC1(C)CC(=O)c2sc(NS(=O)(=O)c3ccc(F)cc3)nc2C1,i,2,4,·,-10,-1,2,-6,
O=C(CSc1nc(-c2ccccc2F)nc2nc[nH]c12)Nc1c(Cl)cc(Cl)cc1Cl,i,10,-4,·,-12,·,·,5,
CCCCC(=O)NNC(=S)NC(=O)C(c1ccccc1)c1ccccc1,i,3,-5,·,-14,-5,-7,26,
CCCCCCCCCn1cc(C(C)=O)c(=O)[nH]c1=O,i,-5,-6,-8,0,2,1,17,
Cc1ccccc1COC(=O)CNC(=O)c1sc2ccccc2c1Cl,i,·,·,-2,-2,6,1,-34,
CCCC(C(=O)NCc1ccco1)N(CC1CCCO1)C(=O)CNS(=O)(=O)c1ccc(F)cc1 (configuration not stated),i,-1,5,5,0,-1,-1,0,
CCCNC(=S)N1CCN(CC)CC1,i,-1,-10,-24,-6,-2,1,6,
COc1ccc(C(C(=O)NC(C)(C)C)N(Cc2ccc(F)cc2)C(=O)CCC(=O)Nc2cc(C)on2)cc1 (configuration not stated),i,-8,-4,12,0,-1,0,14,
COc1ccc(CN(Cc2cccnc2)C(=S)NCCc2ccccc2)cc1OC,i,8,-12,0,11,-5,-8,-10,
Cc1ccc(CNC(=O)Nc2ccc(Cl)cc2)cc1,i,-10,-9,12,0,0,1,-25,
Cc1cc(C)c(NC(=O)CS(=O)CC(=O)NCC2CCCO2)c(C)c1 (configuration not stated),i,-1,-6,-17,-14,2,4,-8,
N#CC1=C(N)NC(SCc2ccccc2)=C(C#N)C12CCCCC2,i,13,2,1,59,1,-11,7,
CCN(CC)S(=O)(=O)c1ccc(C)c(NC(=S)N2CCN(c3ccccn3)CC2)c1,i,1,8,-8,-31,10,-15,1,
CCNc1nc(NCC)nc(Nn2cnnc2)n1,i,-16,3,-5,-22,2,7,·,
COc1ccc(Cc2nc3ccc(C(=O)N4CCCC4)cc3o2)cc1OC,i,-3,5,4,-2,-1,-23,1,
CCc1cc(C(=O)NCC(c2cccs2)N2CCOCC2)sc1C (configuration not stated),i,·,·,-5,-8,-1,0,22,
COc1ccc(CNC(=O)C2CCN(C(=O)c3ccc(-c4ccccc4)cc3)CC2)cc1,i,-8,11,-4,-11,8,-7,16,
CC(=O)Oc1ccc(-c2cc3ccccc3oc2=O)cc1,i,·,·,-20,·,-3,-1,-60,
COc1ccc(/C=C(\C#N)C(=O)OCC(=O)NCc2ccccc2Cl)cc1,i,10,-23,·,-6,0,1,32,
COC(=O)c1ccc(N)c(CS(=O)(=O)c2ccc(Cl)cc2)c1,i,-12,-8,-19,-7,1,4,7,
CN(C)C1(CNCC(O)c2ccccc2)CCCCC1 (configuration not stated),i,-2,-1,-4,-12,1,2,-12,
Cc1ccc(O)c(-c2cc(C(=O)Nc3ccc(S(=O)(=O)N4CC(C)OC(C)C4)cc3)[nH]n2)c1 (configuration not stated),i,0,-9,-23,44,8,-8,-41,
COc1cc(Sc2ccc(C)cc2)c(OC)cc1N,i,5,-10,-9,11,16,-2,·,
COc1ccc(C(=O)c2cn[nH]c2-c2ccc(C)cc2O)cc1,i,1,7,-20,-16,-2,-6,29,
CC(NC(=O)C1CCC1)c1ccc2c(c1)OCO2 (configuration not stated),i,-10,-6,·,·,5,3,-32,
CCOc1ccc(N2CC(C(=O)NCc3ccc(F)cc3)CC2=O)cc1 (configuration not stated),i,-13,-1,-16,-12,5,4,-33,
O=C(NCCSc1ncc(-c2ccc(F)cc2)[nH]1)c1ccc2c(c1)OCO2,i,·,·,-21,12,3,5,2,
N#CCC(=O)Nc1ccc(C(=O)OCC(=O)NC2CCCc3ccccc32)cc1 (configuration not stated),·,·,·,-15,1,-4,-1,·,
Cn1c(=O)[nH]c(=O)c2c1nc(NCCO)n2CCOc1ccccc1,i,6,-10,-11,-1,5,3,2,
O=C1COc2ccc(C(=O)CSc3nnc(Cc4ccccc4)o3)cc2N1,i,·,·,-3,-7,4,1,-18,
COc1ccc2ccccc2c1CNc1nnnn1C,i,-7,7,·,-1,11,5,-2,
Cc1nn(-c2cccc(Cl)c2)nc1C(=O)O,i,5,1,·,-8,13,5,-5,
O=C(NCCc1ccccc1)C(=O)NCC1OCCN1S(=O)(=O)c1cccs1 (configuration not stated),i,-1,-2,-7,-14,0,2,-16,
C=CCSC1=N/C(=C\c2ccc(C)o2)C(=O)S1,i,21,25,-28,-1,1,6,·,
COc1ccc(CCNC(=O)C2CC(=O)N(c3ccc(C)cc3)C2)cc1OC (configuration not stated),i,-10,1,30,-9,1,-1,1,
CCOC(=O)C(C)Oc1ncnc2cccc(F)c12 (configuration not stated),i,-1,2,·,-4,1,3,-7,
COc1ccc(NC(=O)Nc2ncn(Cc3cccc(C(F)(F)F)c3)n2)cc1OC,i,-5,15,-9,8,5,2,29,
CC(CC(=O)NCC1CCCO1)c1ccccc1 (configuration not stated),i,2,-16,·,-12,-2,2,4,
CN1CCN(C2CCN(Cc3ccc(O)c4ncccc34)CC2)CC1,·,·,·,-36,0,3,1,·,
CNC(=O)c1ccsc1NC(=O)C1CCN(S(=O)(=O)c2cccs2)CC1,i,·,·,-6,-12,1,-2,-31,
CCOC(=O)c1[nH]c2ccc(OC)cc2c1NC(=O)c1nonc1C,·,-11,2,-26,-10,2,-2,·,
Cc1nnc(SCC(=O)N(C)C2CCS(=O)(=O)C2)n1Cc1ccccc1 (configuration not stated),i,2,-15,-23,-7,-5,-3,12,

# Assay outcomes (PubChem)
